Compound activity deposited in PubChem BioAssay by National Center for Advancing Translational Sciences (NCATS).
Rango release inh = prevents RanGTP from dissociating the Rango-importin beta complex; O95149+P62826; Biochemical FRET Rango-importin beta, RanGTP-induced dissociation; Potency, µM (highest dose often 46.1 µM), inactives show at the highest dose activity change, negative = inhibition; 340,000 compounds, 0.071% hits; AID 540253; active means falling FRET ratio curve, often poorly fitted, with flat reads before Ran was added; inconclusive means other falling curves, or compound fluorescence or quenching; inactive means flat or rising ratio curve;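 further: potency means the concentration at half of the fitted maximal effect; % of control where 0% means no effect; nearly all actives have a fitted effect of over 45% in size; -100% = wells without RanGTP and RCC1; the record marks most hits as doubtful in a second field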
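FRET read at 45 min, room temperature: inhibitors block the CFP/YFP signal rise when RanGTP (0.6 uM Ran, 2 mM GTP, 0.2 uM RCC1) frees Rango (0.1 uM) from importin beta (0.25 uM). Pre-read after 5 min compound exposure flags interference.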
Rango-impB inh = Rango-importin beta binding inhibition | Q14974 | Rango CFP/YFP FRET sensor + importin beta, 45 min | Potency, µM (highest dose often 92.2 µM), for the others: at the top dose inhibition of complex formation | 340,000 compounds, 0.031% hits; active = rising FRET ratio curve, often small or poorly fitted; inconclusive = mostly compound fluorescence or quenching in the first reads; inactive = flat curves in all reads;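 further: potency means the concentration at half of the fitted maximal effect; 0% = DMSO wells and 100% = buffer wells lacking importin beta; nearly all actives have a fitted effect of over 15% in size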
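FRET biosensor Rango (snurportin 1 IBB between N-terminal EYFP and C-terminal Cerulean), 50 nM in PBS/1 mM DTT/0.02% Tween-20/0.1% BSA, preincubated 5 min RT with compound; 0.125 microM importin beta added, 45 min RT, CFP/YFP FRET ratio read.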
miR-21 reporter = raises the signal of a miR-21 reporter. Potency, µM (titrated, usually from 38.3 µM), without a hit: top-dose reporter change, positive = more light. 340,000 tested, under 10 active. HeLa miR-21 FLuc reporter, luciferase, 48 h; active = well fitted rising curve with a large enough effect; inconclusive = small, poorly fitted or top-dose-only effect; inactive = no such curve, though single readings can be large or run the other way;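 further: % of control where 0% means no effect; miR-21 action dims this reporter so a rising signal means less miR-21 action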
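Luminescence from a firefly luciferase reporter carrying a miR-21 binding site downstream, stably expressed under a CMV promoter in HeLa cells that make miR-21 endogenously, reports miRNA modulation after 48 h compound exposure up to approximately 40uM final.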
GLA inh pH 4.5 = alpha-galactosidase A (human) inhibition, pH 4.5; P06280; purified enzyme, 4-MU-alpha-Gal fluorescence, pH 4.5; activity change, negative = inhibition, % at 105 µM; 230,000 tested, under 10 active; AID 1467; inconclusive = small, poorly fitted or top-dose-only inhibition, or a rising curve; inactive = flat fitted curve, though single readings scatter; no compound was filed as active;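 further: 0% = full activity with enzyme and -100% = basal without enzyme; dose as in the result columns while the protocol names 77 µM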
Target sequence (P06280 whole entry, looked up): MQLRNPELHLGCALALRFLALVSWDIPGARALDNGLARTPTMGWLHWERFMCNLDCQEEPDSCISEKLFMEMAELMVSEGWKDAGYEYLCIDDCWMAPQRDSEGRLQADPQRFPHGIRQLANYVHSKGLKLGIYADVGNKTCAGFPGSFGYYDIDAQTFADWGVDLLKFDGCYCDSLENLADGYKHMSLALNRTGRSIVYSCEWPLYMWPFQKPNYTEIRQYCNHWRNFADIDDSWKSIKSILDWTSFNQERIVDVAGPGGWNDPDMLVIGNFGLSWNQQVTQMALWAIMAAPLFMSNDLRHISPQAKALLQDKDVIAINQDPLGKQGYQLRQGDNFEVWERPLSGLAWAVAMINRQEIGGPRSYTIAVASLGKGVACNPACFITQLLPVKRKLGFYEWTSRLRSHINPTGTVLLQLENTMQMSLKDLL
* marks the source's active call; other numbers are inactive results; ? = inconclusive; / = no result given; & = joins results of further samples; [ ] = remark or other dose. The list is partial; rates above refer to the full screens.

Second line of a record: GLA inh pH 4.5	Rango-impB inh	miR-21 reporter	Rango release inh
- CCCCOc1ccc(/C=C/C(=O)OCC(=O)N2CC(=O)Nc3ccccc32)cc1OCC
 : 6	3.0%	19%	54%
- CCOc1ccccc1NC(=O)CSc1nnc(-c2cnccn2)n1C
 : 6	0.0%	-1%	-3%
- O=C(NCCCN1CCOCC1)c1cccc(S(=O)(=O)Nc2ccccc2Cl)c1
 : /	5.0%	2%	21%
- CCCc1cc(NCc2ccccn2)n2nc(C)c(-c3ccccc3)c2n1
 : -3	-1.0%	?	8%
- O=C1CSC(=Nc2ccccc2)N1
 : -3	?	0%	-5%
- Cc1ccccc1OCC(=O)NCC1CCCO1 (centres undefined)
 : -4	1.6%	-17%	14%
- COc1ccc(CCNC(=O)c2cc3c(=O)n4ccccc4nc3n(CC3CCCO3)c2=N)cc1OC (centres undefined)
 : /	?	9%	?
- Cc1ccc(Nc2ncnc3sc(C)c(C)c23)cc1C
 : -11	-1.2%	-35%	2%
- CCCCN(CCCC)CCNC(=O)c1cn(CC)c2ccc(S(=O)(=O)N(C)C3CCCCC3)cc2c1=O
 : /	-0.2%	-1%&-2%	-5%
- CSc1ccc(CN2CCSCC2)cc1
 : /	-3.0%	-16%	-17%
- CCN(Cc1ccccc1)C(=O)c1cc2c(OC)c(OC)c(OC)cc2[nH]1
 : /	-3.2%	8%	2%
- CCOC(=O)CN1CC23C=CC(O2)C(C(=O)O)C3C1=O (centres undefined)
 : 0	1.3%	0%	-15%
- CC(=O)c1ccc(NC(=S)NCC(c2ccco2)N2CCCC2)cc1 (centres undefined)
 : 2	-0.5%	-15%	-8%
- Cc1ccc(NC(=O)c2sc(C)nc2C)c(C)c1
 : /	-1.5%	-22%	-19%
- Cc1c(O)nc(SC2CC(=O)N(c3ccccc3)C2=O)[nH]c1=O (centres undefined)
 : 6	6.2%	7%	-6%
- O=C(COC(=O)c1cccs1)NCCc1ccc(F)cc1
 : /	-0.9%	/	36%
- CCCCOCCCNC(=O)COc1ccccc1
 : -3	2.6%	-11%	-2%
- Cc1ccc(C(=O)NCCCNC(=O)c2ccco2)cc1
 : /	0.0%	-8%	-1%
- COC(=O)c1c(NS(=O)(=O)c2ccc(C)cc2)sc2c1CCC(C)C2 (centres undefined)
 : 11	-1.4%	-6%	2%
- Cc1ccc(C)c(NC2=NS(=O)(=O)c3ccccc32)c1
 : -6	-1.6%	-5%	-6%
- Cc1cccc(OCC(=O)NC2CCCCCC2)c1C
 : /	-2.5%	-3%	-14%
- N#Cc1cc(-c2ccccc2)nc(N2CCNCC2)n1
 : -2	-0.4%	-7%	-20%
- C/C(=N\N=C(c1ccccc1)c1ccccc1)c1cccs1
 : -11	-2.2%	-17%	-13%
- O=C(Nc1ccc(S(=O)(=O)N2CCCCC2)cc1)c1ccc(CN2CCc3ccccc3C2)cc1
 : -24	-3.2%	?	0%
- Cc1cc(C)cc(NC(=O)N2CCCCCCC2)c1
 : 1	-1.0%	-14%	7%
- CC(=O)Nc1ccc(C(=O)Cn2nnc3ccccc3c2=O)cc1
 : 5	2.4%	-18%	1%
- CCCCCNC(=O)c1cc(S(=O)(=O)N2CCCCC2)ccc1F
 : -3	-0.7%	-10%	-4%
- CCOc1ccc2c(c1)N(C(=O)CN1C(=O)CCC1=O)C(C)(C)C=C2C
 : 1	6.8%	-2%	0%
- Cc1cc(C(=O)Nc2ccon2)cs1
 : -9	-2.9%	-17%	2%
- O=C(COC(=O)c1ccc(F)cc1F)NCCNC(=O)COC(=O)c1ccc(F)cc1F
 : /	2.2%	0%	?
- O=C(OCC(=O)c1c[nH]c2ccccc12)c1cc(S(=O)(=O)N2CCOCC2)ccc1F
 : /	2.0%	/	-5%
- O=C(OCC(=O)N1CCN(C(=O)c2ccco2)CC1)c1cc(-c2cccc(Br)c2)nc2ccccc12
 : 3	-1.9%	9%	-13%
- COC(=O)CC1=NC(=O)CS1
 : 5	-1.5%	5%	9%
- N/C(=N\OC(=O)c1cccc([N+](=O)[O-])c1)c1cccnc1
 : 0	0.3%	-49%	1%
- Cc1ccc(C)c(NC(=O)CN(C)C(=O)Cc2ccc(Cl)cc2Cl)c1
 : /	9.0%	8%	-3%
- CCOC(=O)C1=C(COC(=O)c2cccs2)NC(=O)NC1C (centres undefined)
 : /	4.4%	/	3%
- CCOc1cc(OCC)cc(C(=O)Nc2cccnc2)c1
 : 1	5.3%	10%	0%
- O=C(CSc1nc2ccc(NC(=O)CSc3nnnn3Cc3ccccc3)cc2s1)Nc1ccccc1
 : -2	-0.3%	-12%	2%
- Cc1cc([N+](=O)[O-])ccc1N1C(=O)c2ccc(C(=O)Nc3ccccc3C(=O)O)cc2C1=O
 : /	-0.9%	-1%	-8%
- CCCCNC(=O)CSc1nc(CCC)nc2ccccc12
 : -4	-2.3%	-1%	29%
- CCC(C)[C@H](NC(=O)C1CCC(CNC(=O)[C@@H]2CCCN2C(=O)OC(C)(C)C)CC1)C(=O)O (some centres undefined)
 : /	6.4%	0%	-3%
- CCOC(=O)C1=C(c2ccccc2)O/C(=C(\C(=O)OC)C(F)(F)F)S1
 : 4	-0.1%	5%	13%
- CC(C)(C)c1ccc(OCCC(=O)OCC(=O)NC2CCS(=O)(=O)C2)cc1 (centres undefined)
 : /	-0.1%	/	13%
- CCCN1CCc2c(sc3nc(SCC)n(-c4ccc(OC)cc4)c(=O)c23)C1
 : /	?	10%	?
- Cc1ccc(NC(=O)c2ccccc2OCC(=O)Nc2ccccc2F)cc1S(=O)(=O)N(C)C
 : /	-0.9%	/	-1%
- Cc1cc(C)n2c(SCC(C)C)nnc2n1
 : 3	1.1%	-10%	-13%
- Cc1ccc(CNC(=O)CCCn2c(=O)[nH]c3ccccc3c2=O)cc1
 : -1	0.7%	3%	-11%
- O=C(Nc1ncc(Cc2cccc(Cl)c2Cl)s1)C1CCCO1 (centres undefined)
 : 6	-0.6%	-71%	18%
- CCN(CC)S(=O)(=O)c1cc(C(=O)OC(C)C(=O)NCc2ccco2)ccc1C (centres undefined)
 : /	2.8%	/	16%
- CCc1ccc(N(CC(=O)Nc2ccccc2C(=O)N2CCCC2)S(C)(=O)=O)cc1
 : /	0.7%	0%	-8%
- COc1ccc(N2CCN(C(c3cc(OC)ccc3OC)c3nnnn3Cc3ccco3)CC2)cc1 (centres undefined)
 : -12	-3.0%	-5%	14%
- Cc1ccc(C(=O)N2CCSCC2)cc1
 : 6	2.8%	-5%	-5%
- CCOc1ccccc1NC(=O)CN1C(=O)CSC(C)C1=O (centres undefined)
 : -3	-1.6%	-2%	-4%
- CCCCn1c(CCC(=O)O)nc2cc(S(=O)(=O)N(C)C)ccc21
 : -4	-6.1%	0%	42%
- CCOC(=O)C1=C(C)NC(=O)NC1
 : 1	5.4%	-17%	1%
- Cc1ccc(C2OCC(C)([N+](=O)[O-])CO2)cc1 (centres undefined)
 : /	9.1%	/	26%
- O=C(CC(C(=O)O)c1ccc(F)cc1)c1ccc(Cl)cc1 (centres undefined)
 : /	-1.6%	1%	-8%
- O=C(NCC1CCCCC1)c1cc(S(=O)(=O)N2CCOCC2)ccc1F
 : /	-1.0%	/	-12%
- C=CCOC(=O)C1=C[C@@H](c2ccc(C(F)(F)F)cc2)C[C@@H](OCCCCO)O1
 : /	-7.2%	/	1%
- COc1ccc(CN2C(=O)NC3(CCCCC3)C2=O)cc1F
 : 0	0.4%	-4%	4%

Shown with bars between the fields: entries from further up
structure | GLA inh pH 4.5 | Rango-impB inh | miR-21 reporter | Rango release inh
Cc1ccc(NC(=O)c2ccccc2OCC(=O)Nc2ccccc2F)cc1S(=O)(=O)N(C)C | / | -0.9% | / | -1%
CCN(CC)S(=O)(=O)c1cc(C(=O)OC(C)C(=O)NCc2ccco2)ccc1C (centres undefined) | / | 2.8% | / | 16%
CCOC(=O)C1=C(c2ccccc2)O/C(=C(\C(=O)OC)C(F)(F)F)S1 | 4 | -0.1% | 5% | 13%
Cc1cc(C)n2c(SCC(C)C)nnc2n1 | 3 | 1.1% | -10% | -13%
CCC(C)[C@H](NC(=O)C1CCC(CNC(=O)[C@@H]2CCCN2C(=O)OC(C)(C)C)CC1)C(=O)O (some centres undefined) | / | 6.4% | 0% | -3%

Filtered by structure, the compounds so far with a Cl atom.
Second line of a record: GLA inh pH 4.5	Rango-impB inh	miR-21 reporter	Rango release inh
- O=C(NCCCN1CCOCC1)c1cccc(S(=O)(=O)Nc2ccccc2Cl)c1
 : /	5.0%	2%	21%
- Cc1ccc(C)c(NC(=O)CN(C)C(=O)Cc2ccc(Cl)cc2Cl)c1
 : /	9.0%	8%	-3%
- O=C(Nc1ncc(Cc2cccc(Cl)c2Cl)s1)C1CCCO1 (centres undefined)
 : 6	-0.6%	-71%	18%
- O=C(CC(C(=O)O)c1ccc(F)cc1)c1ccc(Cl)cc1 (centres undefined)
 : /	-1.6%	1%	-8%

(next part)
Second line of a record: GLA inh pH 4.5	Rango-impB inh	miR-21 reporter	Rango release inh
- N/C(=N\OC(=O)COc1ccc(Cl)cc1Cl)c1ccncc1
 : 8	5.5%	-61%	21%
- CCOC(=O)Cn1c(=O)oc2cc(S(=O)(=O)N3CCCC(C(=O)OCC)C3)ccc21 (centres undefined)
 : -2	?	-1%	22%
- COC(=O)c1ccc(-c2noc(CN(C)CC3CCCCO3)n2)cc1 (centres undefined)
 : -1	0.4%	-36%	7%
- CCCCC1C2C(=O)N(c3ccc(C)cc3)C(=O)C2ON1c1ccccc1 (centres undefined)
 : -6	-0.8%	-41%	36%
- CCOC(=O)c1c(NC(=O)CSc2nnc(CNc3ccc(F)cc3)o2)sc(C)c1C
 : -14	1.0%	7%	-7%
- Cc1cc(C)nc(Sc2ncnc(N)c2[N+](=O)[O-])n1
 : 4	1.4%	6%	?
- O=C(CN1CCN(c2ncccn2)CC1)Nc1ccccc1C(F)(F)F
 : 10	-0.6%	-4%	16%
- Cc1cc(C)c(S(=O)(=O)NCCc2ccccc2)c(C)c1
 : -12	?	-18%	-5%
- Cc1cc(Br)ccc1-n1[nH]c(C)c(C=Nc2cccc3nsnc23)c1=O
 : -7[21.1 µM]	7.1%	-1%	0%
- CC(=O)N1CCN(S(=O)(=O)c2ccc(S(=O)(=O)N3CCCC(C)C3)cc2)CC1 (centres undefined)
 : /	-0.9%	2%	17%
- Cn1c(=O)[nH]c(=O)c2c1nc(N1CCCCCC1)n2CCCSc1nc2ccccc2o1
 : -1	1.0%	-12%	0%
- COCc1c(C(=O)Nc2cccc(S(=O)(=O)N3CCCCC3)c2)oc2ccccc12
 : /	0.1%	/	-17%
- CCC1(CC)C(=O)N(C)C(=O)NC1=Nc1ccccc1
 : 0	4.1%	-7%	-6%
- COC(=O)c1cc2ccccc2c([N+](=O)[O-])c1O
 : /	-1.1%	/	13%
- NS(=O)(=O)c1ccc(CNC(=O)c2cc(=O)c3cc(Cl)ccc3o2)cc1
 : /	0.1%	-2%	10%
- COc1ccc(CNC(=O)c2cnn3c(C(F)F)cc(C)nc23)cc1
 : -15	-0.8%	-54%	-4%
- Cc1ccc(-c2ccc(CCC(=O)O)n2-c2ccc(O)cc2)cc1
 : 0	?	1%	2%
- O=C(CCCO)N/N=C/c1ccccc1[N+](=O)[O-]
 : 6	1.8%	-3%	2%
- O=C(O)C(F)=C(c1ccccc1)c1ccccc1
 : /	-0.1%	/	10%
- CC(C)C[C@H](NC(=O)c1[nH]cnc1C(=O)Nc1ccc(CNC(=O)OC(C)(C)C)cc1)C(=O)OCc1ccccc1
 : -3	1.7%	13%	1%
- CC(C)Cc1nc2n[nH]c(N)c2c2c1CCCC2
 : 5	0.3%	-19%	9%
- Cc1nnc(SCC(=O)Nc2nc(C(C)(C)C)cs2)s1
 : 0	-0.3%	3%	-12%
- CC/C(=N\NC(=O)c1csc(C)c1C)c1cccs1
 : 0	-4.9%	-39%	?
- COCCn1c(Cc2ccccc2)nnc1SCC(=O)NC1CCCCC1
 : /	-2.0%	0%	?
- Cc1ccc(/C(N)=N/OC(=O)c2ccc3c(c2)OCO3)cc1
 : -3	-1.7%	-60%	2%
